Screening results: PubChem BioAssay, several laboratories
E coli growth: inhibitors of Escherichia coli growth | OD600 absorbance (concentration not given with the values) | 0.21% of 330,000 active | OD600, 23 h; stronger effect = lower value;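 active = OD600 absorbance below the run mean of sample wells minus 3.6 SD, in any replicate, cut at about 0.56 in these data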;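 note: stock transfer was 300 nL into about 60 µL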
LANA-H2B inh: blocks KSHV LANA binding to histone H2A/H2B; Q9QR71; cell-free LANA-H2A/H2B peptide, fluorescence polarization; inhibition, % (no concentration beside the values); 0.6% of 320,000 active; AID 2629; in the data active = inhibition mostly above about 10%, no sharp cut-off; inactive = mostly below about 6.7%;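 note: stock transfer was 7.5 nL into about 10 µL; 0% = median of vehicle wells and 100% = median of positive control wells; one replicate is shown; the record names a cut of 25% in any replicate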
UCH37 DUB inh: blocks the human deubiquitinase UCH37 | Q9Y5K5 | inhibition, % (test concentration not listed) | purified proteasome/UCH37, Ub-AMC cleavage fluorescence | 0.33% of 330,000 active | AID 588478;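 active = mean of two replicates above 20%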;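 note: 0% = compound-free wells with enzyme and 100% = wells lacking proteasome; stock transfer was 100 nL into about 20 µL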
Target sequence (Q9Y5K5 whole entry, looked up): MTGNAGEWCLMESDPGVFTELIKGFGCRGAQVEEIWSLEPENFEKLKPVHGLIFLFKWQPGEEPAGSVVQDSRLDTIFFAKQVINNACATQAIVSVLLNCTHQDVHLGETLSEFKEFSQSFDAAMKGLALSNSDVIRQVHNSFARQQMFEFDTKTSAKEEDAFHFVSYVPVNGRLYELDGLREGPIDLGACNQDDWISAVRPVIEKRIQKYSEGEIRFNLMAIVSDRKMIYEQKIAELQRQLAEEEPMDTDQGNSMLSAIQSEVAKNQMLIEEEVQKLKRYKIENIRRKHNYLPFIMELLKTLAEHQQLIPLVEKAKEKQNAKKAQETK
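Schedule: 30 min plus 25 min, room temperature / Material: human UCH37 within purified proteasomes / Technique: AMC fluorescence intensity at 355/460 nm / Buffer or medium: pH 7.4 Tris-HCl (50 mM) with ovalbumin, ATP-MgCl2, DTT / Controls: wells without proteasome as full block, compound-free enzyme plus substrate as uninhibited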
Beta2AR agonist: activates human beta-2 adrenergic receptor causing internalization; response, % (concentration not given with the values); P07550; 0.43% of 340,000 active; Am2.2-beta2AR cells, FAP receptor internalization, flow cytometry; reference of the scale not given here;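 active = response above a set limit, near 3 SD of response in nonfluorescent compounds, cut at about 42% in these data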;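 note: stock transfer was 100 nL into about 11 µL; a reference agonist was the positive control; negative values mostly stem from fluorescent compounds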
Target sequence (P07550 whole entry, looked up): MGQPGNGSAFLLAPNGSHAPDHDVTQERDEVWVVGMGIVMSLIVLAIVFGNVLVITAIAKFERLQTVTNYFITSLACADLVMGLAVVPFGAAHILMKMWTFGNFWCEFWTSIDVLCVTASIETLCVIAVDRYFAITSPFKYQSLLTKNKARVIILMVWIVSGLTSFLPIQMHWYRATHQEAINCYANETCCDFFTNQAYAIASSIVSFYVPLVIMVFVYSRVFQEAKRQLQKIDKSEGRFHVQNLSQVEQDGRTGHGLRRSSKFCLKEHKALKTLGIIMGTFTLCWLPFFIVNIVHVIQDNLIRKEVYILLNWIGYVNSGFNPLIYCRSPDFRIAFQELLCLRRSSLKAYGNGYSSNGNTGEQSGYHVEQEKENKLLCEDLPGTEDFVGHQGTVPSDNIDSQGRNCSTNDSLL
ALR inh: blocks human ALR sulfhydryl oxidase activity. P55789. purified ALR, DTT oxidation, H2O2 HRP-luminol luminescence. inhibition, % (no concentration beside the values). 3.8% of 290,000 active. AID 485317;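 active = mean and each replicate at 75% or more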;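 note: stock transfer was 7.5 nL into about 7.5 µL; 0% = neutral wells and 100% = wells with inactivated enzyme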
Target sequence (P55789 whole entry, looked up): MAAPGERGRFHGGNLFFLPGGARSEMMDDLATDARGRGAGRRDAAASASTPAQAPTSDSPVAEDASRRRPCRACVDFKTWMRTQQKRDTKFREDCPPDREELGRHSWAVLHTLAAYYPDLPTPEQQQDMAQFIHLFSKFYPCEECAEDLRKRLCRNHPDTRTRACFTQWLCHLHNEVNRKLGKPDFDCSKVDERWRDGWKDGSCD
FGF22 binding: binders of recombinant human FGF22 by thermal shift; SYPRO orange fluorescence; percent of sucrose octasulfate shift, DMSO zero; 1.5% of 340,000 active; calls only at 9.99 µM; AID 651658;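 active = melting point raised past a set limit in the mean and every replicate; three in four hits are not shown here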
HNF4A DNA FP: change in binding of human HNF4 alpha to DNA; AID 1224865; P41235; HNF4a-FITC DNA binding, fluorescence polarization, 1 h; 0.3% of 360,000 active; activity change, % at 10 µM; in the data active = activity change above about 30%, passing the limit was not always enough;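 note: controls were the assay level and a saturating level of protein; the project sought stronger binding though the title names inhibitors; some compounds called inactive have numbers as strong as hits; positive values seem to mean higher polarization but the record does not say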
* = called active by the depositor; i = inactive; x = not tested or not shown. This is a subset. The share of hits here may be higher or lower than overall.

E coli growth	LANA-H2B inh	UCH37 DUB inh	Beta2AR agonist	ALR inh	FGF22 binding	HNF4A DNA FP	canonical_smiles
0.67	3.0	-0.8	-1	-1	i	-4.6	Cc1nc(Nc2cccc(C(C)O)c2)c2nnn(Cc3ccc(F)cc3)c2n1 (centres undefined)
x	1.2	x	1	x	i	3.0	CC1(C)Cc2ccccc2C(N/N=C/c2ccc([N+](=O)[O-])cc2)=N1
0.71	0.7	2.0	3	-3	i	6.5	C=CCn1c(SCC(=O)c2c(N)n(CCC)c(=O)n(C)c2=O)nnc1-c1ccncc1
0.68	-1.2	1.7	1	-4	i	-0.8	CC(=O)Nc1ccc(NC(=O)COC(=O)CCc2nc3ccccc3s2)cc1
0.77	0.9	-40	-26	-2	i	-1.1	Cc1c(CC(=O)N2C[C@H]3C[C@@H](C2)c2cccc(=O)n2C3)c(=O)oc2cc3occ(C(C)(C)C)c3cc12
0.73	0.9	-0.6	-5	x	i	4.4	CC(=O)Nc1ccc(NC(=O)CS(=O)(=O)c2cn(CC(=O)N3CCC(C)CC3)c3ccccc23)cc1
0.68	-8.4	5.9	5	-3	x	0.4	COCCn1c(=NC(C)=O)sc2cc([N+](=O)[O-])ccc21
x	-4.1	x	16	-1	i	3.4	C/C(=N\Nc1nc(C)c(C)s1)c1ccc([N+](=O)[O-])cc1
0.69	-4.4	-0.1	-8	-5	i	-1.0	Cc1cc(C)c(NC(=O)C2CC(=O)N(C(C)C)C2)c(C)c1 (centres undefined)
0.71	0.8	-1.9	10	-14	i	-0.6	CCC(=O)N1CCN(CCN=CC2=C(O)CC(c3ccc(OC)cc3)CC2=O)CC1 (centres undefined)
x	-0.5	x	-13	-11	x	-1.5	O=c1/c(=C\c2ccc3c(c2)OCO3)sc2n1CCCN=2
0.76	-6.7	-1.8	4	4	i	0.3	COc1cccc(-n2c(SCC(N)=O)nnc2-c2c[nH]c3ccccc23)c1
0.7	-64	-16	i	16	x	14	CCN(CC)c1ccc2cc(C=O)c(=O)oc2c1
0.73	5.8	3.3	-6	x	i	0.8	CC(C)CNC(=O)c1ccccc1NC(=O)c1ccccc1N(C)S(=O)(=O)c1ccccc1
0.67	0.5	5.9	3	-9	i	3.0	COc1cccc(NC(=O)c2ccc3nc(C)sc3c2)c1
0.65	1.3	5.1	13	-5	x	2.3	COc1ccc(-n2nnnc2SCC(=O)NNC(=O)c2ccc([N+](=O)[O-])cc2)cc1
x	2.6	x	3	-4	x	2.6	Cc1cc(NC(=O)CSc2nnc(-c3ccc(Cl)s3)o2)no1
0.66	-0.3	-1.4	-5	1	i	1.4	O=C(NNC1=NCCCCC1)c1cccc([N+](=O)[O-])c1
0.71	3.9	4.4	-9	-11	i	2.1	COc1ccc(/C=C2\SC(=S)N(CCC(=O)NCCCn3ccnc3)C2=O)cc1
0.66	-3.8	5.1	7	-11	x	1.0	COc1ccc(CC(=O)NC(c2ccccc2)c2ccc(C)cc2)c(OC)c1 (centres undefined)
0.68	4.3	4.2	0	0	x	1.9	CNC(=S)N(Cc1ccc(OC)cc1)C1CC(=O)N(c2ccc(Cl)cc2)C1=O (centres undefined)
0.7	2.8	3.6	6	-1	i	-0.7	Cn1c(CCNC(=O)c2ccco2)nc2cc(NC(=O)c3ccccc3Cl)ccc21
0.71	-3.5	-2.2	2	x	x	-0.8	CCOC(=O)N1CCC(NC(=O)CSCc2nc(-c3sccc3C)oc2C)CC1
0.69	-0.4	6.4	8	58	i	-0.4	Cc1ccc(Cl)cc1-c1ccc(C=Nc2ccc(N3CCOCC3)cc2)o1
0.72	-3.9	2.8	-5	2	i	0.0	C#CC(C)(CC)NC(=O)c1cc2nc(C3CC3)cc(C(F)(F)F)n2n1 (centres undefined)
0.68	x	-0.1	9	x	i	3.1	N=C1SCC(=O)N1c1ncc(Cc2cccc(Cl)c2)s1
0.68	1.8	4.5	-1	-1	i	2.9	COc1ccc(Cl)cc1NC(=O)CN(C)C(=O)CCc1nc2ccccc2c(=O)[nH]1
x	-2.1	x	-3	-1	i	-1.3	COc1cc(Cl)c(S(=O)(=O)N2CCCC2)cc1Cl
0.65	0.8	5.4	-20	98*	x	1.2	CC(C)(C)c1nnc2sc(SCC(=O)c3ccccc3)nn2c1=O
0.62	0.1	0.9	-3	0	i	1.9	COc1ccc(NC(=S)N2CCN(C(=O)c3ccco3)CC2)cc1
0.69	-1.2	1.9	11	5	i	2.3	CCN(CC)S(=O)(=O)c1ccc(C(=O)NNC(=O)C2COc3ccccc3O2)cc1 (centres undefined)
0.76	4.3	-98	-2	15	x	-0.3	CCOc1cc(/C=C2/N=C(c3ccc(C(C)(C)C)cc3)OC2=O)cc(Cl)c1OS(C)(=O)=O
0.65	-6.4	4.0	-6	-4	x	0.8	CC1CCN(c2ccc(C(=O)NCCc3ccccc3)cn2)CC1
0.71	0.7	4.1	1	x	i	-5.2	Cc1ccc(C)c(NCc2ccccc2CO)c1
0.71	-1.6	-3.3	3	-2	i	-1.6	CCOC(=O)C1(Cc2cccc(F)c2)CCN(Cc2ccc(COC)o2)CC1
0.7	-7.1	1.5	14	40	i	5.5	COc1ccc(C(C)=O)cc1CC(=O)Nc1ccc2c(c1)CCC2
0.7	-2.4	5.4	-13	-4	x	-1.9	CN(C)S(=O)(=O)c1ccc(N2CCCC2)c(C(=O)NCc2ccccc2)c1
0.7	-3.8	-2.1	4	-5	x	2.1	O=C(COC(=O)c1cccs1)c1ccccc1
0.66	-1.5	-0.6	-3	-1	i	-2.8	O=C(CCNC(=O)c1ccccc1)Nc1cccnc1
0.67	-5.6	1.8	1	3	i	2.9	COC(=O)c1ccc(C(=O)O)nc1
0.71	-1.3	1.1	2	2	x	1.6	Clc1ccccc1Cn1nnc2c(NCCN3CCOCC3)ncnc21
0.68	-7.4	4.8	8	2	i	0.3	Cc1cccc(C(=O)NCC(=O)OCC(=O)NC2CCCCCCC2)c1
0.69	-6.3	2.6	6	6	x	2.1	Cc1ccc(S(=O)(=O)N2CCOCC2)cc1NC(=O)CSc1nnc2cc(C)c3ccccc3n12
0.75	2.6	4.0	-1	5	x	-0.9	CCCCOc1ccccc1-c1cc(C(=O)O)[nH]n1
x	-3.2	x	-2	-9	x	-1.8	S=C(NCCc1cccc(Cl)c1)NCc1ccccc1
0.7	-3.0	2.5	-13	x	x	2.3	NCC(O)COc1ccc2c(c1)OCO2 (centres undefined)
0.7	x	2.3	-3	x	i	2.4	CNS(=O)(=O)c1cc(C(=O)OCC(=O)NC2CCCc3ccccc32)ccc1Cl (centres undefined)
0.67	-8.6	-76	-3	x	i	1.9	N#Cc1c(-c2ccco2)ccn(Cc2cccc(F)c2)c1=O
0.64	-3.1	0.4	-6	x	i	3.2	Cc1nc(C(=O)NCCC(C)C)sc1C1(C)CC(c2ccccc2)=NO1 (centres undefined)
x	x	x	-1	x	i	-0.2	COc1ccc(C(=O)Cc2ccccc2C(=O)O)cc1

Record cards, from the list above. Order of screens: E coli growth, LANA-H2B inh, UCH37 DUB inh, Beta2AR agonist, ALR inh, FGF22 binding, HNF4A DNA FP
Shown for CCOC(=O)C1(Cc2cccc(F)c2)CCN(Cc2ccc(COC)o2)CC1 → 0.71, -1.6, -3.3, 3, -2, i, -1.6
Shown for CCN(CC)S(=O)(=O)c1ccc(C(=O)NNC(=O)C2COc3ccccc3O2)cc1 (centres undefined) → 0.69, -1.2, 1.9, 11, 5, i, 2.3

Laid out differently: results already given.
> CN(C)S(=O)(=O)c1ccc(N2CCCC2)c(C(=O)NCc2ccccc2)c1
- E coli growth: 0.7
- LANA-H2B inh: -2.4
- UCH37 DUB inh: 5.4
- Beta2AR agonist: -13
- ALR inh: -4
- FGF22 binding: x
- HNF4A DNA FP: -1.9
> O=C(COC(=O)c1cccs1)c1ccccc1
- E coli growth: 0.7
- LANA-H2B inh: -3.8
- UCH37 DUB inh: -2.1
- Beta2AR agonist: 4
- ALR inh: -5
- FGF22 binding: x
- HNF4A DNA FP: 2.1
> O=C(CCNC(=O)c1ccccc1)Nc1cccnc1
- E coli growth: 0.66
- LANA-H2B inh: -1.5
- UCH37 DUB inh: -0.6
- Beta2AR agonist: -3
- ALR inh: -1
- FGF22 binding: i
- HNF4A DNA FP: -2.8
> COC(=O)c1ccc(C(=O)O)nc1
- E coli growth: 0.67
- LANA-H2B inh: -5.6
- UCH37 DUB inh: 1.8
- Beta2AR agonist: 1
- ALR inh: 3
- FGF22 binding: i
- HNF4A DNA FP: 2.9

New compounds follow.
E coli growth	LANA-H2B inh	UCH37 DUB inh	Beta2AR agonist	ALR inh	FGF22 binding	HNF4A DNA FP	canonical_smiles
0.71	-1.4	2.3	1	x	x	-2.6	CCCn1c(O)c2ccc(C(=O)N=NC(=O)c3cccnc3)cc2c1O
x	-3.0	x	-3	-3	x	2.6	O=C1N(S(=O)(=O)c2ccccc2F)C(=O)C2(CCCC2)N1S(=O)(=O)c1ccccc1F
0.73	0.4	4.4	0	-7	x	-1.1	CCc1nccn1S(=O)(=O)c1cccc([N+](=O)[O-])c1
0.68	-12	10	1	51	x	27	CCOc1cc(/C=C2/C(=N)N3C(=NC2=O)SN=C3S(=O)(=O)CC)ccc1OC(=O)c1ccco1
0.73	-2.8	2.8	9	-3	i	-1.7	CCOc1ccc(NC(=O)CN2CCCC2c2cccs2)cc1S(=O)(=O)N1CCCCC1 (centres undefined)
0.69	1.7	-1.0	7	-26	x	0.2	Cc1ccc2[nH]c3c(c2c1)CC/C(=C/c1ccccc1)C3=O
0.66	-0.6	-0.3	-3	6	i	-2.2	O=C(CN(C(=O)CCC(=O)Nc1ccccn1)c1ccccc1F)NCc1ccc2c(c1)OCO2
0.72	-0.2	4.4	-20	2	x	0.2	O=C(C1CC1)N1CCc2cc(S(=O)(=O)NC3CCN(Cc4ccccc4)CC3)ccc21
0.68	2.2	3.7	-12	56	i	-4.4	COc1ccc(S(=O)(=O)Nc2ccc(N3CCOCC3)cc2)cc1
0.8	3.1	6.0	-22	8	x	-2.6	Cc1ccc(S(=O)(=O)N2CCN(C(=O)COc3ccc(NC(=O)c4ccco4)cc3)CC2)cc1
0.64	1.4	-9.8	-2	x	i	1.4	Cc1nc(NCc2cccnc2)c2c3c(sc2n1)CC(C)CC3 (centres undefined)
0.64	3.9	11	-10	-1	i	-0.3	Cc1ccc(C2=NS(=O)(=O)N(C)C(C(=O)Nc3cc(C)n(CC(=O)N4CCCCC4)n3)=C2)cc1
0.65	0.9	-0.3	x	-92	i	x	CN1CCN(C(=O)CN(c2ccccc2)S(=O)(=O)N(C)C)CC1
0.66	-2.2	2.2	9	95*	i	-1.5	Cc1ccc(S(=O)(=O)Nc2ccc(O)c3cccnc23)cc1
0.69	-0.1	5.1	5	0	i	-2.2	COc1ccccc1/C=[N+](\[O-])C1SC(=S)N(C)C1(C)C (centres undefined)
0.64	-0.9	-18	-5	x	x	-3.4	c1ccc2c(Nc3nc4c(s3)CCCC4)cccc2c1
0.76	-3.1	-0.2	8	9	x	-0.9	O=C(Nc1cccc(Cl)c1)N1CCN2C(=O)c3ccccc3C12c1ccccc1 (centres undefined)
